Screening data deposited in PubChem BioAssay by National Center for Advancing Translational Sciences (NCATS).
D2 PAM = Beta-Arrestin HTS for Positive Allosteric Modulators of the Human D2 Dopamine Receptor: Potentiators | 360,000 tested, 0.23% active | potentiation, % (test concentration not listed) | AID 624464, 2012 | D(2) dopamine receptor (Homo sapiens), P14416 | DiscoveRx D2 beta-arrestin cells, luminescence, 90 min; 100% = 57 uM dopamine signal; active = potentiation of 50% or more; inconclusive = 30% to 50%; inactive = 30% or less;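 further: compound concentration not given in the record; tested on top of an EC20 dose of dopamine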
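PathHunter D2 cells, attached overnight at 37 deg C, received compound in DMSO plus dopamine at EC20 (50 nM final) for 90 min at 37 deg C. Beta-arrestin recruitment was read as luminescence after 1 h with detection reagent at ambient temperature.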
PINK1 modulator = A Quantitative High throughput Screen to Identify Chemical Modulators of PINK1 Expression | Potency, µM (top dose mostly 76.6 µM), for the others: top-dose activation (PINK1 increase), actives largely listed as activators | AID 624263, 2012 | PINK1 immunofluorescence, high-content cytometry, 24 h | 410,000 tested, 0.2% active; active = well fitted activation curve with a large enough effect; inconclusive = small, poorly fitted or top-dose-only effect; inactive = flat fitted curve, though single readings scatter; cell line not stated here;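 further: potency means the concentration at half of the fitted maximal effect; % of control where 0% means no effect; nearly all actives have a fitted effect of over 65% in size; a mitochondrial uncoupler was the plate control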
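Measures PINK1 amount and localization on or inside mitochondria by immunofluorescence. Stable cells get compounds at 5 concentrations for 24 hours before fixation and staining; CCCP controls included.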
CtBP-E1A inh = qHTS Assay for Inhibitors of the CtBP/E1A Interaction | AlphaScreen GST-E1A/His-CtBP binding, 1536-well; active compounds read low; control for the full effect not named in the record | activity change, % (concentration not given with the values) | 340,000 tested, 0.49% active | AID 651724, 2012; in the data active means activity change below about -65%; inconclusive means about -30% to -65%; inactive means above about -30%; further: on the % scale 0 is the no-effect control and ±100 the full control effect
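Protein mix (5X: 125 nM each GST-E1A, His-CtBP) was incubated with pinned compound 2 h at 37 deg C in dark, in 50 mM Tris pH 8.0 buffer with 300 mM NaCl. Glutathione donor and nickel acceptor beads followed; AlphaScreen signal read after 1 h.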
Sfp PPTase inh = qHTS Assay for Inhibitors of Bacillus subtilis Sfp phosphopantetheinyl transferase (PPTase); Biochemical Sfp PPTase activity, qHTS; Potency, µM, inactives show max response, negative = inhibition, most hits filed as inhibitors; 310,000 tested, 3.5% active; active means well fitted inhibition curve with a large enough effect; inconclusive means small, poorly fitted or top-dose-only effect, or another doubt; inactive means no such curve, though single readings can be large or run the other way;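 further: the enzyme is Sfp with the accession as filed and its product quenches rhodamine fluorescence; potency means the concentration at half of the fitted maximal effect; 0% = enzyme reaction without inhibitor and -100% = no enzyme wells; top concentration of the series not given in the record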
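Buffer: 50 mM Hepes-Na pH 7.6, 10 mM MgCl2, 0.01% Nonidet P-40, 0.01% BSA. Enzyme 15 nM, pre-exposed to compound 15 min; substrates then added and fluorescence change tracked over 30 min.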
TRPV1 PAM = HTS Assay for Compounds that Act as Potentiators of the Vanilloid Receptor 1; 320,000 tested, 0.02% active; Transient receptor potential cation channel subfamily V member 1 (Homo sapiens), Q8NER1; AID 540277, 2011; TRPV1-expressing cells, Fluo-8 calcium influx, capsaicin EC20 potentiation; host cell line not named in the record; control for the full effect not named in the record; potentiation, % at 8.33 µM; active means potentiation above 80%; inconclusive means 30% to 80%; inactive means below 30%; further: 0% is about no effect
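Fluo-8 calcium influx in TRPV1-expressing cells, kinetic read (ex 480/em 520 nm). Compound added and read 3 min for agonist activity, followed by capsaicin at EC20 final and 2 min further read for enhancement.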
Six1-Eya2 inh = qHTS Assay for Inhibitors of the Six1/Eya2 Interaction | 360,000 tested, 0.56% active | AID 651725, 2012 | Homeobox protein SIX1 (Homo sapiens) + Protein phosphatase EYA2 (Homo sapiens), … | AlphaScreen GST-Six1/His-Eya2 binding, biochemical; active compounds read low; control for the full effect not named in the record | activity change, % (concentration not given with the values); in the data active = activity change below about -65%; inconclusive = about -30% to -65%; inactive = above about -30%; further: on the % scale 0 is the no-effect control and ±100 the full control effect
Target sequence (O00167 whole entry, looked up): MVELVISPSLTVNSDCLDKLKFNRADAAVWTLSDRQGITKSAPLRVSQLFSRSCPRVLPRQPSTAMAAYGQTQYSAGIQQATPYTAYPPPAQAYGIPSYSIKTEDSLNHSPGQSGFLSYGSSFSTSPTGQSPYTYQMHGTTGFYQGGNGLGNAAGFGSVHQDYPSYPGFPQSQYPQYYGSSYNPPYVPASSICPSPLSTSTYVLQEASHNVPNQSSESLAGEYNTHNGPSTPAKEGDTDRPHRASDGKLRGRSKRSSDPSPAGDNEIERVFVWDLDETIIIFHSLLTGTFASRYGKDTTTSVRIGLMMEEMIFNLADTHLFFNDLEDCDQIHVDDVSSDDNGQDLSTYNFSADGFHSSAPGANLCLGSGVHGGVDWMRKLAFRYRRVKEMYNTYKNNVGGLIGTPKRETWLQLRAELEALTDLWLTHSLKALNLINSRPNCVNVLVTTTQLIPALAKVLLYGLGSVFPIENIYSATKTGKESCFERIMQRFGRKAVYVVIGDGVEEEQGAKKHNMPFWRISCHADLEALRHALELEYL
Target sequence (Q15475 whole entry, looked up): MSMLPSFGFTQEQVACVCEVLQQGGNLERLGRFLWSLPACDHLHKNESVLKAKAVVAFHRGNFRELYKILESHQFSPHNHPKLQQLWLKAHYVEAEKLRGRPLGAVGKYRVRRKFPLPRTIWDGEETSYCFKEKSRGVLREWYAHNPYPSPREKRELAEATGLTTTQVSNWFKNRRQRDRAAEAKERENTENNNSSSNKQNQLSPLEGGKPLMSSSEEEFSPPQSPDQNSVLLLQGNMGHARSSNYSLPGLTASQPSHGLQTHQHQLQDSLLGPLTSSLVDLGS
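AlphaScreen with GST-Six1 and His-Eya2 (5X mix: 250 nM and 500 nM), glutathione donor and nickel acceptor beads; buffer 50 mM Tris pH 8.0, 300 mM NaCl, 1 mM TCEP; 1 h at 37 C in the dark.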
D2 agonist = Beta-Arrestin HTS for Positive Allosteric Modulators of the Human D2 Dopamine Receptor: Agonists; D(2) dopamine receptor (Homo sapiens), P14416; DiscoveRx PathHunter D2 beta-arrestin, luminescence, 90 min; 100% = 57 uM dopamine signal; activation, % (no concentration beside the values); 360,000 tested, 0.084% active; in the data active = activation above about 40%; inconclusive = about 15% to 40%; inactive = below about 15%; further: compound concentration not given in the record; the text of the record calls up to 30% inactive
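Agonist mode: compounds alone added to overnight-plated D2 PathHunter cells for 90 min at 37 C, with 57 uM final dopamine (EC100) defining full response. Beta-arrestin recruitment detected by chemiluminescent reagent, read after 1 h at ambient temperature.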
Active calls of the source: *; ? = inconclusive; . = not tested or not shown; & = joins results of further samples; [ ] = remark or other dose.

SMILES	D2 PAM	PINK1 modulator	CtBP-E1A inh	Sfp PPTase inh	TRPV1 PAM	Six1-Eya2 inh	D2 agonist
O=C(NCc1cccs1)C(=O)c1c[nH]c2ccccc12	-3	2.2%	4	?	-46	5	-1.6
CSc1ccc(/C=C/C(=O)OCC(=O)c2ccc[nH]2)cc1	-6	-0.5%	17	.	-3	-2	-3.6
CCOc1ccc(N=c2cc(-c3ccc(OC)cc3)oc3ccccc23)cc1	-9	6.6%	1	-13%	7	?	-10
COc1ccc(-c2cc3c(=O)n(CC(=O)NCc4ccc(C)cc4)ncn3n2)cc1	-3	6.8%	0	1%	-7	1	4.4
Cc1cc(C)c(C(=O)COC(=O)CNC(=O)c2ccccc2C)c(C)c1	-9	5.6%	-1	.	9	6	-3.9
CC(C(=O)NN)n1nnc(N2CCOCC2)n1 (stereo not drawn)	1	-1.0%	.	5%	23	4	0.7
COc1ccc(C)cc1S(=O)(=O)N1CCCCC1	-15	-1.2%	-2	5%	-26	7	-0.7
CCc1ccc(NC(=O)CSc2nnc(CC)c(CC)n2)cc1	-15	0.6%&-3.3%	18	15%	6	13	-1.9
OCC1CCCCN1C(=S)Nc1cccc(Cl)c1 (stereo not drawn)	-1	1.1%	3	10%	14	3	-2.7
CSc1cccc(NC(=O)C2CCCN2S(=O)(=O)c2ccc3c(c2)CCC(=O)N3)c1 (stereo not drawn)	-7	6.8%[38.3 µM]	-2	7%	-8	-1	-2.6
Cc1ccc(NC(=O)Cn2c(O)c(N=NC(N)=O)c3ccccc32)cc1	-5	14%	-5	8%	1	-3	-2.3
CC1CCCCN1Cc1c(O)ccc2c(=O)c(-c3ccc(Cl)cc3Cl)coc12 (stereo not drawn)	-3	1.5%	-3	10%	17	5	-5.5
C[C@H](O)Cc1cn(-c2cc3cc(C#Cc4ccsc4)ccc3oc2=O)nn1	-11	2.0%	-3	.	-3	-5	-4.9
CSc1ncc(C(=O)Nc2cc(C)ccc2C)c(C)n1	4	-0.4%	4	5%	-2	3	-0.8
CC(C)CC(=O)Nc1ccc(C(=O)COC(=O)C2CCC2)cc1	-17	-0.5%	-15	9%	24	-4	-5.3
CCN1C(Nc2ccccc2)=NC[C@@H]1CC(C)C	-2	0.1%	9	12%	-19	2	-3.4
CCOC(=O)c1cc(-c2ccccc2)sc1NC(=O)C(C)(C)C	27	12%	8	10%	8	10	3.6
Nc1c(C(=O)c2ccc(F)cc2)oc2ccccc12	-14	?	12	4%	-14	5	-0.2
Cc1nnc(SCC(=O)N(C)CC(=O)Nc2ccc(F)cc2)n1Cc1ccccc1	5	-1.8%	4	-5%	?	-1	0.6
C=CCSC1=C(C#N)C(c2ccccc2OCC)C(C#N)C(=O)N1 (stereo not drawn)	-6	.	7	35µM*	10	2	-1.0

Next section (5 carried over from the part before).
SMILES	D2 PAM	PINK1 modulator	CtBP-E1A inh	Sfp PPTase inh	TRPV1 PAM	Six1-Eya2 inh	D2 agonist
CCN1C(Nc2ccccc2)=NC[C@@H]1CC(C)C	-2	0.1%	9	12%	-19	2	-3.4
CCOC(=O)c1cc(-c2ccccc2)sc1NC(=O)C(C)(C)C	27	12%	8	10%	8	10	3.6
Nc1c(C(=O)c2ccc(F)cc2)oc2ccccc12	-14	?	12	4%	-14	5	-0.2
Cc1nnc(SCC(=O)N(C)CC(=O)Nc2ccc(F)cc2)n1Cc1ccccc1	5	-1.8%	4	-5%	?	-1	0.6
C=CCSC1=C(C#N)C(c2ccccc2OCC)C(C#N)C(=O)N1 (stereo not drawn)	-6	.	7	35µM*	10	2	-1.0
CCCc1nc(N)sc1C(=O)OCC	-11	2.0%	1	-18%	-5	7	-5.0
CCN(CC)c1ccc(S(=O)(=O)N2CCOCC2)cc1NC(=O)CSc1nnc(N)s1	18	3.1%	0	.	-4	6	-4.2
O=C(Cn1nc(C(F)(F)F)cc1C1CC1)Nc1ccccc1F	-19	0.2%	-4	16%	10	-3	-1.8
O=C(Nc1ccc(F)cc1F)NC1CC(=O)N(Cc2ccccc2)C1 (stereo not drawn)	-10	-2.1%	-4	21%	-2	7	-0.3
CCOC(=O)N1CCC(NC(=O)CSCc2nc(-c3ccc(OC)c(OC)c3)oc2C)CC1	-7	2.4%	-8	9%	1	2	1.0
CCCCC(=O)N1CCN(c2ccc(OC)cc2[N+](=O)[O-])CC1	0	-1.9%	8	-6%	-19	-21	-0.4
Cn1cc(CN2CCc3ccccc3C2)c2ccccc21	-22	0.6%[38.3 µM]	-13	-13%	-7	-10	-3.0
O=C(c1ccc(NC2=NC3CS(=O)(=O)CC3S2)cc1)N1CCN(C(=O)c2ccco2)CC1 (stereo not drawn)	-3	-0.2%	1	23%	6	-1	-7.6
COc1cccc(NC(=O)CN(C)C(=O)CSc2nc3ccccc3s2)c1	-36	0.0%	12	.	21	-12	-6.7
CCOC(=O)N/N=C/c1ccc(F)cc1	-6	3.0%[38.3 µM]	0	13%	-6	0	-2.4
CC(=O)c1cccc(CN(C)CC2CCCN(CCc3ccccc3C)C2)c1 (stereo not drawn)	-79	1.7%	.	10%	2	-5	-4.2
O=C(CN1C(=O)c2cccc([N+](=O)[O-])c2C1=O)N1CCN(c2ccc(F)cc2)CC1	24	3.1%	8	7%	17	1	2.6
CN1CCN(S(=O)(=O)c2ccc(Nc3ccc(F)cc3)c([N+](=O)[O-])c2)CC1	5	1.2%	?	.	-3	-21	1.2
COc1ccc(/C=C(\NC(=O)c2ccco2)C(=O)NCc2ccco2)cc1	0	1.5%	3	23%	0	-5	-1.5
O=C(COC(=O)c1ccc(O)cc1)Nc1cc(C(F)(F)F)ccc1Cl	-4	?	4	12%	1	0	6.4
C=CCN(c1ccccc1Cl)S(=O)(=O)c1cc(C(=O)N2CCCC2)ccc1Cl	-12	1.4%	.	-26%	-18	1	-3.6
O=C(NC(=S)N(CCc1ccccc1)CCc1ccccc1)c1ccco1	-42	2.0%	8	6%	-7	0	-7.3
Cc1ccc(NC(=O)C2CCN(C(=O)NC3CCCCC3)CC2)cc1Cl	-15	6.2%	1	13%	5	0	-2.6
CC(=O)Oc1ccccc1Cn1c(C)c(C(=O)NCc2ccc(F)cc2)sc1=O	3	1.2%	-19	.	.	?	7.9
O=C1CSC(c2ccc3c(c2)OCO3)N1c1ccc(Oc2ccccc2)cc1 (stereo not drawn)	-16	.	-6	-13%	6	-10	-1.2

Among those listed so far, three have a thiophene ring, fused or not:
SMILES	D2 PAM	PINK1 modulator	CtBP-E1A inh	Sfp PPTase inh	TRPV1 PAM	Six1-Eya2 inh	D2 agonist
O=C(NCc1cccs1)C(=O)c1c[nH]c2ccccc12	-3	2.2%	4	?	-46	5	-1.6
C[C@H](O)Cc1cn(-c2cc3cc(C#Cc4ccsc4)ccc3oc2=O)nn1	-11	2.0%	-3	.	-3	-5	-4.9
CCOC(=O)c1cc(-c2ccccc2)sc1NC(=O)C(C)(C)C	27	12%	8	10%	8	10	3.6

Carrying on.
SMILES	D2 PAM	PINK1 modulator	CtBP-E1A inh	Sfp PPTase inh	TRPV1 PAM	Six1-Eya2 inh	D2 agonist
CS(=O)(=O)N(CCc1ccccc1)CC(=O)N1CCCCCC1	1	2.0%	8	.	.	-1	-2.6
O=C(COC(=O)Cc1ccc(Cl)cc1)NC1CCCC1	-2	-0.8%	0	.	-8	7	3.3
CC(=O)Nc1ccc(S(=O)(=O)NCc2ccccn2)cc1	-9	2.2%	-3	-4%	2	4	-4.1
CCN(CC)c1cccc(OCC(=O)N(C)CCC#N)c1	-1	1.4%	-7	-21%	13	-2	-0.5
O=C(CCN1CCN(c2ccccc2)CC1)NNC(=O)c1ccccc1	-12	1.3%	0	.	.	-11	4.0
CC(C)c1cc(Cn2c3ccccc3c(=O)n2C(C)CBr)on1 (stereo not drawn)	-2	0.2%	30	.	.	27	2.0
CC(C)n1nnnc1SCC(=O)NCCc1ccccc1	13	-2.8%	-12	14%	6	1	-0.5
CCN(C1CCCCC1)S(=O)(=O)c1ccc(S(=O)(=O)NCCc2ccncc2)cc1	-6	2.4%[38.3 µM]	6	-19%	-31	6	0.3
COC(=O)C1C(O)C(C)C(O)C(C)(O)/C=C\C=C(/C)C(=O)Nc2c(C)c(OC(C)=O)c3c(c2O)C(=O)C(C)=C2OCOC(=C23)/C(C)=C/C(C)(O)C(O)C(C)C1O (stereo not drawn)	1	1.2%	-15	?	10	-15	7.8
COC(=O)c1ccc(CN2CCN(Cc3ccccc3)C(CCO)C2)cc1 (stereo not drawn)	-25	-0.5%	17	12%	-1	6	-2.7
CCCc1cc(C(=O)N2CCN(c3ccc(C(F)(F)F)cn3)CC2)sc1C	-5	?	28	5%	-2	22	-3.5
CCOc1ccc(N(C(=O)c2snc(C(N)=O)c2N)C(C(=O)NCC2CCCO2)c2c[nH]c3ccccc23)cc1 (stereo not drawn)	-7	-0.8%	-8	5%	16	-4	0.7
COc1ccc([C@@H]2Sc3cc(OC)ccc3N(CCN(C(C)C)C(C)C)C(=O)[C@H]2OC(C)=O)cc1	-2	-27%[38.3 µM]	-9	-8%	4	-5	-3.6
O=c1[nH]cccc1-c1nc2ccccc2n1Cc1cccc(F)c1	-7	-0.5%	-19	4%	5	1	-1.0
CC(OC(=O)C12CC3CC(CC(O)(C3)C1)C2)C(N)=O (stereo not drawn)	-2	2.2%	4	14%	-6	-1	-3.4
